# High-throughput results as filed in PubChem.
# Rce1 inhib = yeast Rce1p protease inhibitors, primary screen, biochemical, fluorescence, cell-free homogeneous. yeast membranes, quenched prenylated peptide cleavage fluorescence. CAAX prenyl protease 2 (Saccharomyces cerevisiae (strain ATCC 204508 / S288c)), Q03530. calls only. 0.27% of 290,000 active;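 active = fall in fluorescence gain of 50% or more versus controls, with final raw signal at or below 3038400; inconclusive = same 50% fall but final raw signal above 3038400; inactive = fall in fluorescence gain under 50%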;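 note: plate controls were neutral control wells for no effect and wells lacking membranes for full effect; tested at 10 µM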
# MT1-MMP act inh = blockers of MT1-MMP proenzyme processing, primary screen, HT1080 RFP-PRO-GFP cells, GFP/RFP fluorescence; Matrix metalloproteinase-14 (Homo sapiens), P50281; GFP/RFP ratio fluorescence, overnight; percent of plate control window, DMSO zero; GFP/RFP ratio change, % at 20 µM; AID 651647, 2012; 0.061% of 360,000 active;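 active = GFP/RFP ratio change of at least 30% with cell ATP level not reduced by more than half and red fluorescence within 50% of control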; note: strong numbers were not always called active
#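 Material – HT1080 RFP-PRO-GFP cells · Control set – DMSO wells and RFP-L50D-GFP cells · Incubation – overnight cell settling, then overnight compound exposure, 37 °C, 5% CO2 · Compound dosing – single-point 20 µM compound, 1% DMSO · Read-out – GFP/RFP fluorescence ratio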
# HIV Env fusion = inhibitors of HIV-1 Env-driven cell-cell fusion, primary screen, HeLa-JRFL effector, CEM21 target cells, luciferase; 1.1% of 360,000 active; AID 651610, 2012; inhibition, % at 12.3 µM;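 active = mean replicate inhibition score of at least 50 and every replicate individually at or above 50; inconclusive = only one of the two criteria met; inactive = mean below 50 and not all replicates reaching 50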;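 note: 0% = plate neutral controls and 100% = maraviroc near 300 nM; one replicate is shown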
# CSC inhib = cancer stem cell viability inhibitors, primary screen, luminescence; cancer stem cell-like cells viability; inhibition, % at 7.5 µM; 1.1% of 300,000 active;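 active = mean at 75% or more and at least half the replicates too; inconclusive = mean and replicates disagree; tested in HMLE shEcad cells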;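 note: 0% = median of negative and 100% = median of positive control wells; the first replicate is given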
# PABP FP inh = PABP poly(A) RNA binding inhibitors, primary screen, biochemical, fluorescence polarization, uHTS. AID 2014, 2009. Polyadenylate-binding protein 1 (Homo sapiens), P11940. 1% of 290,000 active. inhibition, % at 35 µM;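 active = 50% or more with normal probe brightness, or confirmed in later tests; inconclusive = above 50% with abnormal brightness, or retests that disagree; inactive = below 50% or failed in later tests; about a fifth of its hits are not listed in these tables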;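 note: calls also rest on retests at 20 µM and on dose response follow-up; controls were probe without protein and protein plus probe with vehicle; some compounds called inactive have numbers as strong as hits; many hits fall short of the cut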
# Target sequence (P11940 whole entry, looked up): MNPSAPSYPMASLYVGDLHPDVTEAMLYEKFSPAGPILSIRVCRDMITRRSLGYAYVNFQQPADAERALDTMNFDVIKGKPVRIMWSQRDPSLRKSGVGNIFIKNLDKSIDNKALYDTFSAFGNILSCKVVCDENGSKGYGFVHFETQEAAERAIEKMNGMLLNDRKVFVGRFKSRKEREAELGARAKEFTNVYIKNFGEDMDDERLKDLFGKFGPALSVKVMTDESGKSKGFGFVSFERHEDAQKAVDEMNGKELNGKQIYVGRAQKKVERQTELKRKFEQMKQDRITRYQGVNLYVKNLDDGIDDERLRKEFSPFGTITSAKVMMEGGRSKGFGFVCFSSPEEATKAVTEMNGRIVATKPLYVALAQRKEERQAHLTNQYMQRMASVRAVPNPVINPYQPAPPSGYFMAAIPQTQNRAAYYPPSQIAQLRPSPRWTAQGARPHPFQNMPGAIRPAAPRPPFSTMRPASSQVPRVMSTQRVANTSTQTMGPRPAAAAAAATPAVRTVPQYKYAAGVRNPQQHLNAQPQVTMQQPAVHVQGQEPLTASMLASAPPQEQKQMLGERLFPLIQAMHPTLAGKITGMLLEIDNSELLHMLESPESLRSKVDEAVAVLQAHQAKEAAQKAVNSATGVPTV
# Yeast UUG start = modulators of yeast start codon fidelity, primary screen, whole organism, S. cerevisiae, single point, plate reader. S. cerevisiae UUG-firefly luciferase reporter, luminescence/redox ratio. activity score, % at 18.7 µM. 0.13% of 350,000 active;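 active = replicate mean at a twofold rise or more, about +100% in these data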;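 note: firefly luciferase made from a UUG start codon reports start codon fidelity; reporter light over untreated wells divided by growth signal over untreated wells; some hits fall short of that in this replicate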
# eIF4H FP inh = human eIF4H binding inhibitors, primary screen, translation initiation inhibitor project, biochemical, uHTS, fluorescence polarization; 0.94% of 290,000 active; eIF4H fluorescence polarization binding assay; AID 2012, 2009; inhibition, % at 35 µM;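 active = 50% or more with normal probe brightness, or confirmed in later tests; inconclusive = above 50% with abnormal brightness, or retests that disagree; inactive = below 50% or failed in later tests; about a fifth of its hits are not listed in these tables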;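 note: calls also rest on retests at 20 µM and on dose response follow-up; 0% = protein and probe with vehicle and 100% = probe without protein; strong numbers were not always called active; many hits fall short of the cut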
# eIF4H FP inh retest = also measured in eIF4H FP inh; calls as there; inhibition, %; compound at 20 µM; confirmation average;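 mean of two retest wells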
# PABP FP inh retest = second read-out of PABP FP inh, no call of its own (marks repeat the call); inhibition, %; compound at 20 µM; confirmation repeats;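 mean of two retest wells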
# MT1-MMP act inh RFP = also measured in MT1-MMP act inh; calls as there; RFP signal change, %; measured here: RFP expression control read;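 0 = vehicle wells; hits needed this value within 50% of zero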
# * = called active by the depositor; i = inactive; u = inconclusive; x = not tested or not shown; & = joins results of further samples; [ ] = another dose, or the depositor's remark.
SMILES,Rce1 inhib,MT1-MMP act inh,MT1-MMP act inh RFP,HIV Env fusion,CSC inhib,PABP FP inh,Yeast UUG start,eIF4H FP inh,others
COc1cc(-c2nc(CN3CCCCC3CCNC(C)=O)c(C)o2)ccc1F (centres undefined),i,-3,2,5,-5,-8,x,1,
CCS(=O)(=O)n1c(Cc2cccs2)nc2ccccc21,i,-5,1,x,-8,x,-26,x,
COc1cccc2c(=O)n(CC(=O)NC3CCCCC3)ccc12,i,3,6,4,4,-6,-25,1,
COc1ccc(CCN(C)C2CCCN(S(C)(=O)=O)C2)cc1OC (centres undefined),i,4,2,-5,-15,6,-5,-8,
CCCSc1nnc(NC(=O)c2sc3nc(-c4cccs4)ccc3c2N)s1,i,-69,1,4,41,6,x,6,
CNC[C@H]1Oc2c(NS(=O)(=O)c3ccc(OC)cc3)cccc2C(=O)N([C@H](C)CO)C[C@@H]1C,x,0,3,-7[16.7 µM],x,x,-10,x,
CCNc1nc(NC(C)(C)C)nc(N(CC)n2cnnc2)n1,i,3,0,5,-11,-2,-21,-8,
COC(=O)c1ccc(CN(c2ccccc2OC)S(=O)(=O)c2cccs2)o1,i,-2,-2,x,-7,4,9,3,
Cc1ccc(CNC(=O)C2CCN(S(=O)(=O)c3ccc4c(c3)OCCCO4)CC2)cc1,i,5,-5,10,-7,0,5,-3,
CCOc1ccc(C2C3=C(CCCC3=O)Nc3ccc4ncccc4c32)cc1 (centres undefined),i,1,-2,-29,-10,7,11,-7,
O=C(NCCCN1CCN(Cc2ccccc2)CC1)C1CCN(c2nnc(-n3cccc3)s2)CC1,i,1,-11,x,2,-7,-13,-8,
COc1ccc(-c2csc(N3C(=O)C4C5c6ccccc6C(c6ccccc65)C4C3=O)n2)cc1 (centres undefined),i,-4,-3,x,0,7,x,2,
CCN(C(=O)CO/N=C/c1ccc(OC)cc1OC)c1c(N)n(Cc2ccccc2)c(=O)[nH]c1=O,x,0,1,0,1,x,-9,x,
CCOc1ccc(CNc2ccc(N3CCCC3)cc2)cc1,i,11,4,x,4,-10,-50,-5,
CCC(C)(C)n1nnnc1C(c1cc2ccc(OC)cc2[nH]c1=O)N1CCN(C2CCCCC2)CC1 (centres undefined),x,-5,-3,-37,-9,3,x,-5,
CC(=O)C1C(=O)CC(c2ccc(Cl)cc2)CC1=O (centres undefined),i,-3,0,6,1,-8,5,-3,
Cc1noc(-c2ccc(C(F)(F)F)cc2)c1NC(=O)Nc1ccc(Cl)cc1,i,-8,-23,48,52,0,-4,-1,
CC1CCN(Cc2cc(=O)oc3ccc(C(C)C)cc23)CC1,i,0,0,16,-3,10,12,-8,
CCC(CC)c1nnc(NC(=O)c2ccc([N+](=O)[O-])cc2)s1,i,-2,-10,-10,7,-2,-19,-19,
CCCc1cc(O)c2c(C)cc(=O)oc2c1,i,-6,-2,x,6,6,-7,-2,
N#Cc1ccccc1NC(=O)c1ccccc1OCC(=O)Nc1ccc2c(c1)oc1ccccc12,i,-2,-4,x,11,x,-22,x,
COCCn1c(SCC(=O)c2ccc(Cl)cc2)nnc1C(C)C,i,6,5,x,25,6,-18,1,
CC(=O)NC(CCS(C)(=O)=O)C(=O)Nc1cc(C)ccc1C (centres undefined),i,-2,1,-33,-15,3,-12,2,
Cc1ccc(NC(=O)COC(=O)c2cc(=O)c3cc(F)ccc3o2)cc1,x,-5,4,-1,x,x,-12,x,
CC1(C)CC(=O)C=C(c2ccc(COC(=O)C3CC3)cc2)C1=O,x,0,0,3,x,x,8,x,
# (further entries)
SMILES,Rce1 inhib,MT1-MMP act inh,MT1-MMP act inh RFP,HIV Env fusion,CSC inhib,PABP FP inh,Yeast UUG start,eIF4H FP inh,others
CC(C)N(C(=O)COC(=O)[C@H](C)NC(=O)c1ccco1)c1ccccc1,i,3,2,-13,-10,-5,x,3,
Cc1cc(C)c2nc(SCC(=O)NCCN3C(=O)CSC3=O)cc(C)c2c1,i,2,3,-8,-12,-1,3,-4,
O=S(=O)(Nc1ccc(-n2cnnn2)cc1)c1cccs1,x,1,2,x,-18,x,-7,x,
CN(CC(=O)Nc1cccc(F)c1)C(=O)Cc1ccsc1,x,0,6,-27,x,x,-11,x,
CC1(CC(=O)N/N=C/c2cc([N+](=O)[O-])c(O)cc2O)OCCO1,i,4,2,-1,27,-6,x,28,
O=C(O)C1CCN(C(=O)CSc2nnc3ccccn23)CC1,x,4,4,x,1,x,-14,x,
CCOC(=O)C(Sc1cc(-c2ccccc2)nc2ncnn12)C(C)=O (centres undefined),i,-23,0,21,-3,-5,x,2,
Cc1nc(N2CCN(c3ccccn3)CC2)c2c(C)c(C(=O)Nc3ccc(F)cc3)sc2n1,i,-5,-7,13,6,-21,x,6,
Cc1cccc(-n2c(N)cc(=O)nc2SCC(=O)Nc2cc(C)on2)c1,i,-1,-4,-2,8,6,-7,-6,
O=C(CN1CCc2cc3c(cc2C1)OCCCO3)Nc1c(F)cccc1F,i,2,-8,1,7,2,-19,-6,
Cn1c(Cn2nnc3ccccc32)nnc1SCC(N)=O,i,8,5,x,-5,3,-15,0,
CCCc1c(O)c2ccccc2[nH]c1=O,i,-3,2,x,-3,5,13,4,
Cc1ccsc1/C=N/N1CCN(Cc2ccccc2)CC1,i,2,1,-5,-14,7,-32,-6,
COc1ccc(C2/C(=C(/O)c3ccc(C)cc3)C(=O)C(=O)N2CCCN2CCOCC2)cc1 (centres undefined),i,0,3,-8,-6,-8,-7,7,
CC1(C)CC2(C)OCCN2C(=S)N1 (centres undefined),i,4&0,1&6,-8&2,-6,10,-20,-1,
C=C(C)Cn1c2ccc(NC(=O)CCc3cccc(Cl)c3)cc2c(=O)n1C,x,1,-9,-91,x,x,-7,x,
CC1CCCC(NC(=O)C2CCC(CNc3c(N4CCCCC4)c(=O)c3=O)CC2)C1C (centres undefined),i,-2,1,13,-9,-6,x,1,
COc1ccc(Cc2c(-c3ccccc3)nc3ccc(Br)cn23)c(C)c1,x,-4,-1,-68,x,x,13,x,
CC(C)C[C@H]1CN([C@@H](CC(C)C)CN2CCC[C@@H]2CN2C(=O)C(=O)NC[C@@H]2Cc2ccccc2)C(=O)C(=O)N1CCc1ccccc1,x,-3,-7,-52,x,x,-6,x,
Cc1cc(OC(=O)c2c(C)cc(OC(=O)c3c(C)cc(O)cc3O)cc2O)cc(O)c1C(=O)O,i,1,2,x,0,x,-5,x,
COc1ccc(S(=O)(=O)N(C)C[C@H]2Oc3ncc(-c4ccncc4)cc3C(=O)N([C@@H](C)CO)C[C@@H]2C)cc1,x,1,1,2,x,x,-1&3&-1,x,
O=C(COc1ccccc1)Nc1ccc(CN2CCCCC2)cc1,i,3,3,-4,24,0,-5,-1,
CCOC(=O)N1CCN(C(=O)c2ccc(CS(=O)(=O)c3ccccc3OC)o2)CC1,i,3,0,-72,-2,7,-7,3,
Cc1cc(C(=O)CSc2nnc(N)s2)c(C)n1CCc1ccc(F)cc1,i,2,-7,-15,11,-12,-17,-1,
C=CCn1c(SCCC(=O)O)nnc1-c1cccs1,i,1,3,x,-6,-7,-13,-6,
# Further structures
SMILES,Rce1 inhib,MT1-MMP act inh,MT1-MMP act inh RFP,HIV Env fusion,CSC inhib,PABP FP inh,Yeast UUG start,eIF4H FP inh,others
CN(c1ccc(C(=O)NCc2cccnc2)cc1)S(=O)(=O)c1ccc(Cl)cc1,i,0,-7,-2,42,5,-7,-15,
COc1cc(/C=N/NC(=O)Cn2cnc3c2c(=O)n(C)c(=O)n3C)ccc1O,i,1,4,1,-22,-15,-17,-2,
CN1C(=O)[C@H]2[C@@H](c3ccc(C(F)(F)F)cc3)N[C@]3(CCCN(Cc4cccn4C)C3=O)[C@H]2C1=O,x,1,3,-18,x,x,-8,x,
COc1cc(/C=C/C(=O)OCC(=O)Nc2ccc(S(N)(=O)=O)cc2)ccc1O,i,5,6,7,-15,23*,-9,52*,eIF4H FP inh retest=65*;PABP FP inh retest=74*
CCc1ccc(NC(=O)Cn2nnc(C(=O)NCc3ccco3)c2N)cc1,i,0,-1,-13,-5,7,-12,-14,
CCN(c1ccc(OCC(=O)OCC(=O)c2c(N)n(C)c(=O)n(C)c2=O)cc1)S(=O)(=O)c1ccccc1,i,9,8,9,-8,16,-2,-3,
CCCc1cc(-c2n[nH]c(C(=O)OCC)c2-c2cscn2)c(O)cc1O,x,1,-9,x,x,-6,3,2,
Cc1ccc(S(=O)(=O)C2(C(=O)NC3CCCCC3)CC2)cc1,i,4,5,0,1,-15,-7,-15,
Cc1ccc(OCC(=O)NCCCNC(=O)c2cnccn2)cc1C,i,3,3,7,x,10,-16,4,
CC1(C)NC(=O)N(c2ccc([N+](=O)[O-])c(C(F)(F)F)c2)C1=O,x,-3,-6,25,-11,x,-6,x,
CN(CCS(=O)(=O)c1ccc(Cl)cc1)Cc1cccnc1,i,-1,3,-2,8,0,-11,-5,
CCN(CC)S(=O)(=O)c1ccc(C(=O)OCCN2C(=O)CCC2=O)cc1,i,-1,2,-26,-2,-6,-9,-10,
CC(=O)c1cccc(NC(=O)CCS(=O)(=O)c2ccc(Br)s2)c1,i,3,3,3,1,0,-20,3,
O=C(CSc1nnc(Cn2c(=O)sc3ccccc32)n1CCc1ccccc1)N1CCOCC1,x,3,2,-10,-17,-6,-16,-5,
C[C@@H]1CCCCO[C@H](CN(C)S(=O)(=O)c2cccs2)[C@@H](C)CN([C@H](C)CO)C(=O)c2cc(NC(=O)Nc3ccc4c(c3)OCO4)ccc2O1,x,-2,0,-41,x,x,-8&-14,x,
CC(=O)c1ccc(S(=O)(=O)N(C)C(C)CCc2ccco2)cc1 (centres undefined),i,0,-3,-39,4,-5,-4,-11,
CSC1=N/C(=C\c2cccc(F)c2)C(=O)S1,i,-7,-4,-59,-8,-9,-5,-6,
Cc1ccc(C)c(NC(=O)C2CCC(C)(C(=O)O)C2(C)C)c1 (centres undefined),i,5,2,-15,-2,-6,-12,9,
CC(C)Sc1nc(-c2ccccc2)cc(=O)[nH]1,i,11,6,-12,x,-3,-8,6,
Cc1cccc(NC(=O)CSCc2nc3c(nnn3Cc3ccc(F)cc3)c(=O)[nH]2)c1C,i,0,0,20,6,6,x,-1,
COc1ccccc1-c1c(C)oc2c(CN3CCN(CCO)CC3)c(O)ccc2c1=O,u,-1,4,x,x,-4,x,-12,
O=C(/C=C\Nc1ccccn1)c1ccc(Cl)cc1,x,7,-5,x,6,15,-46,-10,
CCc1nc(SCC(=O)NCCc2ccccc2)c2c(=O)n(C)c(=O)n(C)c2n1,i,-2,-5,13,-2,-9,-13,-6,
CCCCNC(=O)c1ccc(NC(=O)C2CCCO2)cc1 (centres undefined),i,0,-3,-17,-18,10,-17,7,
O=c1cc(CO)oc(C(Nc2cccc(C(F)(F)F)c2)c2ccccn2)c1O (centres undefined),i,-4,4,-13,19,2,-12,53,eIF4H FP inh retest=50;PABP FP inh retest=42

# Not all compounds are listed; count on the stated rates, not on these rows.
